Screening results as filed in PubChem.
CSC inhib – cancer stem cell viability inhibitors, primary screen, luminescence; cancer stem cell-like cells viability; AID 2717, 2010; 300,000 tested, 1.1% active; inhibition, % at 7.5 µM;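 active = mean at 75% or more and at least half the replicates too; inconclusive = mean and replicates disagree; tested in HMLE shEcad cells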;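 also: 0% = median of negative and 100% = median of positive control wells; the first replicate is given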
eIF4H FP inh – human eIF4H binding inhibitors, primary screen, translation initiation inhibitor project, biochemical, uHTS, fluorescence polarization. 290,000 tested, 0.94% active. eIF4H fluorescence polarization binding assay. Eukaryotic translation initiation factor 4H (Homo sapiens), Q15056. AID 2012, 2009. inhibition, % at 35 µM;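 active = 50% or more with normal probe brightness, or confirmed in later tests; inconclusive = above 50% with abnormal brightness, or retests that disagree; inactive = below 50% or failed in later tests; about a fifth of its hits are not listed in these tables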;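 also: calls also rest on retests at 20 µM and on dose response follow-up; 0% = protein and probe with vehicle and 100% = probe without protein; strong numbers were not always called active; many hits fall short of the cut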
MT1-MMP act inh – blockers of MT1-MMP proenzyme processing, primary screen, HT1080 RFP-PRO-GFP cells, GFP/RFP fluorescence; 360,000 tested, 0.061% active; GFP/RFP ratio fluorescence, overnight; percent of plate control window, DMSO zero; GFP/RFP ratio change, % at 20 µM; Matrix metalloproteinase-14 (Homo sapiens), P50281; AID 651647, 2012;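 active = GFP/RFP ratio change of at least 30% with cell ATP level not reduced by more than half and red fluorescence within 50% of control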; also: strong numbers were not always called active
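Test system: HT1080 cells expressing an RFP-PRO-GFP fluorescent reporter construct / Compound dosing: single-point 20 µM compound, 1% DMSO / Schedule: cells overnight before dosing, compound overnight, 37 °C, 5% CO2 / Evaluation: GFP/RFP fluorescence ratio / Control set: DMSO and RFP-L50D-GFP cell wells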
UUG fidelity – modulators of yeast start codon fidelity, primary screen, whole organism, S. cerevisiae, single point, plate reader; S. cerevisiae UUG-firefly luciferase reporter, luminescence/redox ratio; activity score, % at 18.7 µM; 350,000 tested, 0.13% active; AID 602363, 2012;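 active = replicate mean at a twofold rise or more, about +100% in these data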;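 also: firefly luciferase made from a UUG start codon reports start codon fidelity; reporter light over untreated wells divided by growth signal over untreated wells; some hits fall short of that in this replicate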
HIV Env fusion – inhibitors of HIV-1 Env-driven cell-cell fusion, primary screen, HeLa-JRFL effector, CEM21 target cells, luciferase | 360,000 tested, 1.1% active | inhibition, % at 12.3 µM;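 active = mean replicate inhibition score of at least 50 and every replicate individually at or above 50; inconclusive = only one of the two criteria met; inactive = mean below 50 and not all replicates reaching 50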;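 also: 0% = plate neutral controls and 100% = maraviroc near 300 nM; one replicate is shown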
PABP polyA inh – PABP poly(A) RNA binding inhibitors, primary screen, biochemical, fluorescence polarization, uHTS; Polyadenylate-binding protein 1 (Homo sapiens), P11940; inhibition, % at 35 µM; 290,000 tested, 1% active; AID 2014, 2009;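 active = 50% or more with normal probe brightness, or confirmed in later tests; inconclusive = above 50% with abnormal brightness, or retests that disagree; inactive = below 50% or failed in later tests; about a fifth of its hits are not listed in these tables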;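 also: calls also rest on retests at 20 µM and on dose response follow-up; controls were probe without protein and protein plus probe with vehicle; some compounds called inactive have numbers as strong as hits; many hits fall short of the cut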
Target sequence (P11940 whole entry, looked up): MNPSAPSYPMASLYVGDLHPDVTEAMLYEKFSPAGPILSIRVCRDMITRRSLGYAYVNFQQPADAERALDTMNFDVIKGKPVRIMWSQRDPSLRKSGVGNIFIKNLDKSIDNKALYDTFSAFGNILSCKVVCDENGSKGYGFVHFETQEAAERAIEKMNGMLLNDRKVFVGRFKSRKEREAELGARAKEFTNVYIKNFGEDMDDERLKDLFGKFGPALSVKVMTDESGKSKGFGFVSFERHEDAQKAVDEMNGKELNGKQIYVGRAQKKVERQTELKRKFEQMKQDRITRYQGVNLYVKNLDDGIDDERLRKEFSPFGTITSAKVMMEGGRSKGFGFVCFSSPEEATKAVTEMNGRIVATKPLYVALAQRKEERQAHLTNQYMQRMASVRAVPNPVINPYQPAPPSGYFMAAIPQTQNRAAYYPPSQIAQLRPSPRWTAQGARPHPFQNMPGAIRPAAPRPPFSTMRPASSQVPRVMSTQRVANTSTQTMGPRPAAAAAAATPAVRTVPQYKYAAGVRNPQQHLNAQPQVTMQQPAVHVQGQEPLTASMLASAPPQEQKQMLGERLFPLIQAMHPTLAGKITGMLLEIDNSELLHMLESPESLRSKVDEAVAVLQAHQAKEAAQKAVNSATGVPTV
Rce1 inhib – yeast Rce1p protease inhibitors, primary screen, biochemical, fluorescence, cell-free homogeneous; AID 2563, 2010; 290,000 tested, 0.27% active; CAAX prenyl protease 2 (Saccharomyces cerevisiae (strain ATCC 204508 / S288c)), Q03530; yeast membranes, quenched prenylated peptide cleavage fluorescence; calls only;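 active = fall in fluorescence gain of 50% or more versus controls, with final raw signal at or below 3038400; inconclusive = same 50% fall but final raw signal above 3038400; inactive = fall in fluorescence gain under 50%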;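 also: plate controls were neutral control wells for no effect and wells lacking membranes for full effect; tested at 10 µM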
eIF4H FP inh retest – further read-out of eIF4H FP inh, marked with its call; inhibition, %; compound at 20 µM; confirmation average;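 mean of two retest wells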
PABP polyA inh retest – recorded beside PABP polyA inh, whose call it bears; inhibition, %; compound at 20 µM; confirmation repeats;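 mean of two retest wells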
MT1-MMP act inh RFP – further read-out of MT1-MMP act inh, marked with its call; RFP signal change, %; measured here: RFP expression control read;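 0 = vehicle wells; hits needed this value within 50% of zero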
* hit, by the source's call; i = inactive; ? = inconclusive; / = no result given. This is a subset (hit frequency here may not be typical).

SMILES	CSC inhib	eIF4H FP inh	MT1-MMP act inh	MT1-MMP act inh RFP	UUG fidelity	HIV Env fusion	PABP polyA inh	Rce1 inhib	others
O=S(=O)(Nc1ccc(Cc2ccncc2)cc1)c1ccc(Cl)s1	26	-14	-13	-11	-9	4	-4	i
Cc1ccc(C(=O)n2cnc3ccccc32)cc1C	9	5	-1	0	-16	5	14	i
Cc1cccc2sc(NC(=O)C3CCCN(S(=O)(=O)c4cccc5nonc45)C3)nc12 (centres undefined)	-5	-25	-2	2	-1	/	?	i
COc1ccc(NC2=Nc3ccccc3N3C2=Nc2c(c(C)nn2-c2ccc(C)cc2)C3c2cccnc2)cc1 (centres undefined)	8	-7	-23	-7	/	-79	-7	i
CCOc1ccc(S(=O)(=O)NCCC(=O)OCN2C(=O)c3ccccc3C2=O)cc1	-19	-4	-1	-10	-7	-34	-14	i
COc1ccc(/C(O)=C/Sc2nnc(Cc3ccccc3)o2)cc1	-9	-11	3	3	/	12	1	i
CCc1nnc(NC(=O)CSc2nnc(-c3cc4ccccc4cc3O)n2CCOC)s1	-16	-11	1	-2	-20	-90	6	i
CCN(CC)c1ccc(NC(=O)Nc2cccc(C(C)=O)c2)cc1	4	-18	6	-4	-18	-53	-8	i
CCOc1ccc(NC(=O)c2cc3ccccc3cc2OC)cc1	71	-7	12	-7	2	-88	-1	i
CC(Sc1nnc(C2CC2)n1C1CC1)C(=O)NCc1cccs1 (centres undefined)	/	/	1	1	-10	-1	/	/
COc1cccc(C(=O)Nc2ccc(C(=O)NCC3CCCO3)cc2)c1 (centres undefined)	-6	/	1	1	5	7	/	i
Cc1ccc(/C=C/C(=O)Nc2cc(S(=O)(=O)N3CCOCC3)ccc2N2CCOCC2)cc1	/	/	-1	0	-19	15	/	/
COC(=O)c1cn(C(=O)c2ccc(C)cc2)c2ccccc12	-1	-7	-2	1	/	-45	-2	i
O=C(NC1CCCCC1)c1ccc(N2CCCC2=O)cc1	-11	-8	1	3	-17	-82	4	i
Cc1ccc2cc3c(nc2c1)N(Cc1ccco1)CC3	-9	-7	1	-5	-12	/	12	/
CCOc1ccc(NC(=O)C2CCCN(S(=O)(=O)c3c(C)nn(C)c3C)C2)cc1 (centres undefined)	-5	-8	4	0	17	4	-4	i
CCOC(=O)N1CCC(NC(=O)CSCc2nc(-c3ccc(C)cc3)oc2C)CC1	-6	/	3	-13	4	16	/	i
CCNCc1ccc(OCc2cccs2)c(OCC)c1	/	2	-5	-2	/	5	?	i
CC1C2Cn3c(nc4ccccc43)C1N(C(C)C)O2 (centres undefined)	0	-5	3	7	2	-14	7	i
COCCNC(=O)CN1c2ccccc2CC1C (centres undefined)	-3	24	1	1	34	-89	75	i	eIF4H FP inh retest=20;PABP polyA inh retest=17
CC(C)(Oc1ccc(-c2ccco2)cc1)C(=O)O	1	45	/	/	/	/	29	i
CCc1ccc(S(=O)(=O)NCCc2cn3ccccc3n2)s1	9	-9	3	4	-19	/	-3	i
Cc1cccc(NC(=O)CSc2nccn2Cc2ccco2)c1	-20	16	1	-1	-29	-4	7	i
CC(NC(=O)CCNS(=O)(=O)c1ccccc1)c1ccccc1 (centres undefined)	6	-5	2	3	-16	-13	14	i
O=C(CN1CCN(Cc2ccccc2)CC1)N/N=C/C=C/c1ccco1	-7	80	1	2	/	3	-2	i	eIF4H FP inh retest=-15;PABP polyA inh retest=-1
COc1ccc(NC(=O)Cn2c3ccccc3c3nc4n(c(=O)c32)CCS4)cc1	4	-21	-3	-7	/	9	-10	i
COCC(C)N1CCC(n2nccc2NC(=O)c2ccccc2Cl)CC1 (centres undefined)	-2	-1	3	1	-14	/	-3	i
CC(C)(C)C(C(=O)O)N1CCS(=O)(=O)CC1 (centres undefined)	-4	3	2	6	/	9	0	i
O=C(N/C=C/c1ccccc1)Nc1ccc(Cl)cc1	18	1	2	1	/	/	1	i
Cc1cc(OC(C)C(=O)N/N=C/CC(C)c2ccccc2)ccc1Cl (centres undefined)	2	-3	0	-3	-18	/	-4	i
O=C(Nc1ccc2c(c1)OCCO2)C1CCCN(c2ncccn2)C1 (centres undefined)	-3	-11	0	-2	-39	-64	-1	i
Cc1cccc(NC(=O)CSc2nc3nc(C)cc(C)n3n2)c1	-12	-1	0	-2	-14	-3	6	i
COc1ccccc1NS(=O)(=O)c1cccc(NC(=O)Nc2ccc(Cl)cc2)c1	/	-6	-1	-21	/	-13	-2	i
CCOC(=O)c1ccccc1NC(=O)Cc1ccc(S(=O)(=O)N2CCCC2)s1	-9	/	-4	-1	-8	14	/	/
O=C(Oc1c(-c2ccccc2)c(=O)n2c3c(cccc13)CC2)c1ccc(Cl)cc1	16	-1	7	7	/	-5	-1	i
O=C(NC(=S)NNS(=O)(=O)c1ccc(Cl)cc1)c1cccnc1	-8	18	-4	2	/	-2	1	i
Nc1ccccc1C(=O)N1CCC(O)(c2ccc(Cl)cc2)CC1	/	-13	-2	4	-9	-2	6	i
CCN1CCN(C(=S)Nc2ccsc2C(=O)OC)CC1	-15	0	1	-2	/	-1	4	i
COc1ccc(NC(=O)CN(C)CC(=O)NCC(=O)Nc2ccc(F)cc2)cc1	-3	/	-8	2	/	3	/	i
Cc1cnc(C(=O)OCC(=O)NC2CCCC(C)C2C)cn1 (centres undefined)	/	-3	-1	3	-2	/	4	i
CC(C)NC(=S)N1CCN(S(C)(=O)=O)CC1	2	-2	5	9	/	-8	2	i
O=C(Nc1ccccc1)Nc1cccc(-c2nnco2)c1	/	-10	-1	-2	-11	-2	-6	i
O=C(CCCc1ccccc1)NC1CCSC1=O (centres undefined)	-1	7	1	3	0	/	-4	i
CCOc1cc(C2/C(=C(\O)c3cc(C)ccc3C)C(=O)C(=O)N2CCN(C)C)ccc1O (centres undefined)	8	-6	-9	0	0	/	14	i
Cc1ccc(S(=O)(=O)Nc2nc(C)c(C(=O)NNS(=O)(=O)c3ccccc3)s2)cc1	8	-11	-5	4	-28	-8	-8	i
COCCNC(=O)CN(Cc1ccccc1)C(=O)CCC(=O)Nc1nccs1	-6	-8	0	1	-13	-10	-4	/
COc1ccc(CN(C(=O)CN2C(=O)NC3(CCC(C)CC3)C2=O)C(C)Cc2cccs2)cc1 (centres undefined)	-21	/	-2	-4	9	/	/	/
COC(=O)c1sc(-c2ccc(C(C)(C)C)cc2)cc1NC(=O)c1ccccc1C(=O)O	26	7	2	-1	/	-22	2	i
COC(=O)C1=C(C)C(c2ccc(OC)cc2OC)NC(=O)N1 (centres undefined)	-11	-2	2	5	-9	/	5	i
C=CCN(C(=O)c1cccc(C(F)(F)F)c1)C1(C(=O)Nc2ccccc2)CCN(C(C)C)CC1	11	3	-8	1	-16	6	46	i
Cc1ccc(NC(=S)/C(=C(\[O-])c2ccc(C)c([N+](=O)[O-])c2)[n+]2ccccc2)cc1C	14	-1	/	/	/	/	-3	i
NS(=O)(=O)c1ccc(NC(=O)COC(=O)Cc2ccc(Cl)cc2)cc1	4	2	-2	5	-7	-2	3	i
CCc1cccc(CC)c1NC(=O)CSc1nnc(C2CC2)n1C	20	-4	-2	-3	-32	-12	1	i
CCC1CCCCN1C(=O)c1noc(C(C)C)c1[N+](=O)[O-] (centres undefined)	10	-10	7	3	/	-19	-2	i
O=c1[nH]c(NCCO)nc2c1C1(CCCC1)Cc1ccccc1-2	0	7	0	-2	-3	-54	5	?
COC(=O)[C@]1(CC(C)C)N[C@H](c2ccc(SC3CCCCC3)c(OC)c2)[C@@H]2C(=O)N(C)C(=O)[C@@H]21	4	/	1	-4	17	20	/	i
COc1cccc(NC(=O)C/C(C)=N/NC(=O)c2ccccc2Cl)c1	20	-8	1	1	-10	-16	-4	i
CC(=O)N1CCC(N(CCN2CCOCC2)C(=S)Nc2ccc(C)cc2C)CC1	-8	-7	8	5	-7	-4	-6	i
N#CCCN1CCN(S(=O)(=O)c2ccc(C#N)cc2)CC1	-7	2	-2	1	0	/	-5	i
COc1ccccc1OCC(=O)Nc1ccc(C(N)=O)cc1	-6	-1	-2	1	-4	-83	-2	i
(continued)
SMILES	CSC inhib	eIF4H FP inh	MT1-MMP act inh	MT1-MMP act inh RFP	UUG fidelity	HIV Env fusion	PABP polyA inh	Rce1 inhib	others
Cc1cc(NNC(=O)Nc2cccc(Cl)c2)nc2c1c(C)nn2C	10	-1	/	/	/	/	-1	i
Cc1cc(=O)oc2cc(OC(C)C(=O)N3CCOCC3)ccc12 (centres undefined)	6	-2	-4	3	-21	-18	-5	i
CCOC(=O)CSc1ncccn1	-1	-1	0	6	/	9	2	i
O=C(CN1CCN(C(=O)C2CCCO2)CC1)Nc1cc(Cl)ccc1Cl (centres undefined)	0	-3	1	-1	-1	-16	-4	i
CN1CCN(C(=O)c2ccc3c(c2)N(Cc2cccc(Cl)c2)C(=O)c2ccccc2S3(=O)=O)CC1	13	-7	-1	2	-10	-2	5	i
O=C(/C=C/c1ccc(OCCCF)cc1)NCc1cccc(Cl)c1	8	2	6	-2	-53	/	-3	i
NC(=O)CN1CCOCCOCCOCCOCCOCC1	-4	3	11	5	-8	14	-4	i
C=CCn1c(=O)c2ccccc2n2c(SCC(=O)NCC)nnc12	-6	-2	-5	-4	-14	-2	5	i
c1ccc(-n2nnc3ccccc32)cc1	0	1	-6	-2	-17	-10	13	i
COc1cc(OC)cc(C(=O)Nc2ccccc2C(=O)N2CCCC2)c1	/	-1	-3	1	-10	/	4	i
COCCCNC(=S)NC(=O)c1ccccc1	2	10	1	7	-14	5	-3	i
COc1ccc(CCNc2c([N+](=O)[O-])ncn2C)cc1OC	-10	2	-2	0	-16	16	-10	i
CCOC(=O)C1CCCN(C(=O)c2ccc(F)c(C)c2)CC1 (centres undefined)	/	/	-2	4	-9	-37	/	/
CCOc1ccc(-n2c(Cc3cc(=O)[nH]c(=O)[nH]3)nnc2SCc2cccnc2)cc1	-7	7	-5	4	-18	-30	4	i
COc1ccc(OC)c2[nH]c(=O)c(CCNC(=O)c3cc4ccccc4o3)cc12	-1	-13	-1	-2	-2	-47	-7	i
S=c1[nH]nc(-c2ccncc2)n1/N=C/C(Cl)=C\c1ccccc1	27	9	-18	-17	/	-16	-7	/
O=C(NCc1ccco1)c1ccc(=O)oc1	-11	-9	-2	3	-11	/	-2	i
Cc1ccc(NC(=O)CN2CCc3cc4c(cc3C2)OCCCO4)cc1	-2	-2	0	1	-7	5	4	i
CN=C1S/C(=C\c2ccc(SC)cc2)C(=O)N1C	-17	-13	3	1	-7	-10	-5	i

Random excerpt: 2 entries already listed
SMILES	CSC inhib	eIF4H FP inh	MT1-MMP act inh	MT1-MMP act inh RFP	UUG fidelity	HIV Env fusion	PABP polyA inh	Rce1 inhib	others
S=c1[nH]nc(-c2ccncc2)n1/N=C/C(Cl)=C\c1ccccc1	27	9	-18	-17	/	-16	-7	/
CN=C1S/C(=C\c2ccc(SC)cc2)C(=O)N1C	-17	-13	3	1	-7	-10	-5	i
